Cruzain inh noDet = inhibitors of Trypanosoma cruzi cruzain without detergent; purified cruzain, Z-FR-AMC fluorescence, no detergent; actives 2.3% (n = 200,000); P25779; Potency, µM, for inactives: max response, negative = inhibition, most hits filed as inhibitors;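 further: plate controls were enzyme without inhibitor for no effect and buffer without enzyme for full effect; nearly all actives have a fitted effect of over 40% in size; top concentration of the series not given in the record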
Target sequence (P25779 123-467 limits assumed): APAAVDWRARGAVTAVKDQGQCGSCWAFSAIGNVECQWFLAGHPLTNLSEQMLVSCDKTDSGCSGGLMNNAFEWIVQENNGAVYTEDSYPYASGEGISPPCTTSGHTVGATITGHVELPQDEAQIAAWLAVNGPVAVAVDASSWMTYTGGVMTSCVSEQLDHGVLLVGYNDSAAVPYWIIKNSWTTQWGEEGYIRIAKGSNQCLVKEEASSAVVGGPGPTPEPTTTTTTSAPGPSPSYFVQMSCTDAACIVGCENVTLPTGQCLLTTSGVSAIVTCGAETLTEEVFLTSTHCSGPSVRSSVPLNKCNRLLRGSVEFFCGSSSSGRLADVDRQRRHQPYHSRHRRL
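Purified cruzain at 1.5 nM, pre-incubated 15 min with compound at room temperature in 100 mM sodium acetate pH 5.5, 5 mM DTT, 0.00005% Triton X-100. Reaction started with 2 uM Z-FR-AMC; AMC fluorescence increase over 60 s gives rate.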
Lassa entry inh = Lassa virus entry inhibition; actives 1.2% (n = 300,000); Lassa virus pseudotype entry inhibition, cell reporter; control for the full effect not named in the record; Potency, µM (series often up to 37.9 µM), for inactives: at the top dose activity change, negative = inhibition, actives largely listed as inhibitors; AID 540256; active means well fitted inhibition curve with a large enough effect; inconclusive means small, poorly fitted or top-dose-only effect, or effect the other way; inactive means flat fitted curve, though single readings scatter; tested in HEK293 cells; further: on the % scale 0 is the no-effect control and ±100 the full control effect; nearly all actives have a fitted effect of over 50% in size; luciferase read-out
SARS PLpro yeast = blocks SARS-CoV papain-like protease in a yeast assay; AID 485353; S. cerevisiae expressing SARS-CoV PLpro, growth rescue; control for the full effect not named in the record; actives 0.19% (n = 330,000); Potency, µM (titrated, usually from 32.9 µM), inactives show at the top dose activity, positive = growth rescue; active means well fitted rising curve with a large enough effect; inconclusive means small, poorly fitted or top-dose-only effect; inactive means no such curve, though single readings can be large or run the other way; further: 0% is about no effect; nearly all actives have a fitted effect of over 55% in size; growth read by luminescence after 48 h
2A StopGo = lowers the luciferase signal of an FMDV 2A StopGo reporter; AID 1159524; actives 1.2% (n = 410,000); Potency, µM (highest dose often 57.9 µM), inactives show at the top dose signal change, negative = less light; human cells with a luciferase reporter of 2A StopGo recoding; control for the full effect not named in the record; active = well fitted falling curve with a large enough effect; inconclusive = small, poorly fitted or top-dose-only effect; inactive = no such curve, though single readings can be large or run the other way; tested in HEK293T cells; further: on the % scale 0 is the no-effect control and ±100 the full control effect; nearly all actives have a fitted effect of over 45% in size; luciferase light after 4 h
Cruzain Triton = blocks cruzain activity in presence of Triton detergent | P25779 | purified cruzain, Z-FR-AMC fluorescence, 0.01% Triton | Potency, µM, inactives show max response, negative = inhibition, usual class: inhibitors | actives 0.43% (n = 200,000);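 further: plate controls were neutral wells for no effect and buffer without enzyme for full effect; nearly all actives have a fitted effect of over 40% in size; top concentration of the series not given in the record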
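Purified cruzain (1.5 nM final) was preincubated with compounds for 15 min at room temperature in 100 mM sodium acetate pH 5.5, 5 mM DTT, 0.01% Triton X-100. Reaction started with 2 uM Z-FR-AMC; AMC fluorescence change over 60 s gave activity.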
NS1 function inh = blocks influenza NS1 protein function | S. cerevisiae slowed by influenza A NS1, growth recovery by OD600 | actives 0.4% (n = 270,000) | Potency, µM (titrated, usually from 46.1 µM), for inactives: at the top dose activity, positive = more growth; active means well fitted rising curve with a large enough effect; inconclusive means small, poorly fitted or top-dose-only effect; inactive means no such curve, though single readings can be large or run the other way; further: nearly all actives have a fitted effect of over 50% in size
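OD600 was taken as the measure of yeast growth restored by compound in an NS1-expressing S. cerevisiae strain. Cells had been washed out of glucose medium and diluted 1:100 into galactose -URA medium, pH 6.0.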
RE007 growth inh = less growth of the S. pombe RE007 Vpr strain. S. pombe RE007 Vpr strain, BacTiter-Glo ATP luminescence, 24 h; control for the full effect not named in the record. Potency, µM (series often up to 92.2 µM), without a hit: at the highest dose activity change, negative = less growth. actives 0.21% (n = 360,000). AID 651644; active = well fitted falling curve with a large enough effect; inconclusive = small, poorly fitted or top-dose-only effect; inactive = no such curve, though single readings can be large or run the other way;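 further: on the % scale 0 is the no-effect control and ±100 the full control effect; nearly all actives have a fitted effect of over 50% in size; the assay follows cell death caused by Vpr and the record does not say whether a fall means rescue or toxicity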
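Fission yeast strain RE007, carrying one chromosomally integrated HIV-1 vpr copy, was seeded at OD 0.01 in PMG+AL medium with 23 nL pinned compound. After 24 h at 30 °C and 99% humidity, viability was read by BacTiter-Glo luminescence.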
MARV entry inh = Marburg virus entry inhibition; Potency, µM (series often up to 37.8 µM), without a hit: top-dose activity change, negative = inhibition, most hits filed as inhibitors; actives 1.8% (n = 300,000); Marburg virus pseudotyped entry inhibition, cell reporter; control for the full effect not named in the record; about a third of the inactives were read at about 46 µM; active = well fitted inhibition curve with a large enough effect; inconclusive = small, poorly fitted or top-dose-only effect, or effect the other way; inactive = flat fitted curve, though single readings scatter; tested in HEK293 cells; about a fifth of its hits are not listed in these tables; further: on the % scale 0 is the no-effect control and ±100 the full control effect; luciferase read-out
Starred values were filed as active, the others as inactive; ? = inconclusive; . = not tested or not shown; & = joins results of further samples; [ ] = another dose, or the depositor's remark. Unless noted, the call rests on the fitted dose curve; in most records, active means well fitted curve in the direction sought with a large enough effect; inconclusive means small, poorly fitted or top-dose-only effect, or another doubt; inactive means no such curve, though single readings can be large; an effect the other way counts as inactive or inconclusive. Potency means the concentration at half of the fitted maximal effect.

Sequence of screens: Cruzain inh noDet, Lassa entry inh, SARS PLpro yeast, 2A StopGo, Cruzain Triton, NS1 function inh, RE007 growth inh, MARV entry inh
CC(C)(C)NC(=O)c1ccc2c(c1)C1C3CCC(C3)C1C(c1ccccc1)N2 (configuration not stated)
 : -23.9%, ?, -25.9%, 0.0%, -7.1%, 25.9%, 5.6%, 5.4%
O=C(Cn1nnnc1CN1CCOCC1)N1CCC(c2cccc(Cl)c2)C1 (configuration not stated)
 : ., 8.5%, -2.9%, -24.6%, ., -3.5%, 1.8%, 22.4%
O=C(Nc1ccc(Cl)cc1C(=O)c1ccccc1Cl)c1ccco1
 : 1.4%, -9.8%, 3.3%, -6.2%, 0.4%, 5.5%, -9.0%, -8.4%
O=C(NNc1ccccc1C(F)(F)F)c1sccc1Br
 : ., ., -1.2%, -10.5%, ., -2.9%, 5.3%, .
CCN(Cc1ccccc1)C(=O)CCNS(=O)(=O)c1ccc2c(c1)CC(C)N2C(C)=O (configuration not stated)
 : 9.9%, -41.6%[46.1 µM], -0.1%, -5.2%&-12.6%, -2.7%, -4.6%, 16.0%, .
COc1ccc(-c2cn3c(n2)sc2cc(C(=O)Nc4ccc(C)c(Cl)c4)ccc23)cc1
 : -5.1%, 5.6%[46.1 µM], ., 2.2%, -3.4%, ., ., .
CCOC(=O)N1CCN(C(=O)COC(=O)C2CCN(S(=O)(=O)c3c(Cl)cccc3Cl)CC2)CC1
 : ., 0.2%, -0.5%, ?, ., ., 4.0%, 28.2%
O=C(CCn1nnc(-c2cccs2)n1)N1CCc2ccccc2C1
 : -0.8%, -4.3%, -8.3%, -9.4%, -2.4%, -7.4%, -0.5%, -4.2%
COc1ccc(C(c2sc3nc(C)nn3c2O)N2CCc3ccccc3C2)cc1 (configuration not stated)
 : 13.1%, ., -0.8%, 15.6%, -6.9%, -52.2%, -16.7%, .
Cc1ccc(N(C)C(=O)c2cc(S(=O)(=O)N3CCCCC3)c[nH]2)cc1
 : ., ., 19.5%, -24.0%, ., -17.2%, 5.8%, .
CC(=O)Nc1ccc(S(=O)(=O)N2CCN(S(=O)(=O)c3ccc(F)c(F)c3F)CC2)cc1
 : ., ., 10.5%, -4.6%, ., 0.5%, -4.6%, .
O=S(=O)(Cc1ccccc1Cl)NCCc1ccc(F)cc1
 : ., ., -11.3%, 11.7%, ., -23.3%, -2.8%, .
O=C(c1ccccc1)N1CCN(S(=O)(=O)c2ccc(Cl)c(C(F)(F)F)c2)CC1
 : ., 1.7%, 2.6%, -9.7%, ., ., -10.2%, 12.9%
COc1cccc(OC)c1C(=O)Nc1ccc(-c2nc3ncccc3o2)cc1
 : -2.3%, -9.6%[46.1 µM], ., 13.2%, -1.0%, ., ., 7.8%[46.1 µM]
Cc1ccc(S(=O)(=O)N2CCN(C(=O)Cc3ccc(S(=O)(=O)N4CCOCC4)s3)CC2)cc1
 : ., ., ?, -37.2%, ., 11.5%, -11.1%, .
O=C(NN(C(=O)C1CC1)c1nc2ccccc2s1)C1CC1
 : 12.3%, -0.1%, 22.2%, 4.5%, 5.2%, ?, -15.6%, -2.6%
CCCc1nc2ccccc2c(=O)n1NC(=O)c1c(O)c2cccc3c2n(c1=O)CCC3
 : -16.8%, 1.7%, 1.2%, -25.5%, 0.5%, -32.4%, -6.1%, 8.5%&8.5%
CCc1nnc(N2C(=N)SCC2=O)s1
 : ., 0.8%[46.1 µM], -0.3%, 3.5%, ., -3.6%, 9.9%, 2.5%[46.1 µM]
COc1ncccc1-c1nnn(-c2ccc(F)cc2)n1
 : ., ., -0.7%, 35.0%[activator], ., -0.4%, -16.1%, .
O=C(CN1C(=O)S/C(=C/c2cccnc2)C1=O)N1CCOCC1
 : -12.8%, 4.1%, -12.3%, 0.0%, -2.8%, -5.0%, -7.7%, ?
COc1ccc(N2CCN(C(=O)C(=O)c3c(C)n(C)c4ccccc34)CC2)cc1
 : ., -4.3%, -0.6%, -3.8%, ., ., 1.8%, 6.8%[46.1 µM]
CCOc1ccc(CCNC(=O)CSc2nnnn2-c2ccccc2)cc1OCC
 : ?, -25.2%[46.1 µM], ., -13.2%, 1.6%, ., ., 0.1%[46.1 µM]
C=CCn1c(C)cc(C)c(C#N)c1=O
 : 4.5%, -9.6%, -1.1%, 11.2%, -2.0%, 21.5%, -11.3%, -1.1%
CCOc1cc(C(C(=O)NCC2CCCO2)N(C(=O)Cn2nnc3ccccc32)c2ccccc2C)ccc1O (configuration not stated)
 : ., 11.8%, -1.1%, 68.7%[activator], ., -8.4%, 1.9%, 1.7%
CCOC(=O)c1c(NC(=O)c2ccc(F)cc2)sc2c1CCC(CC)C2 (configuration not stated)
 : 4.8%, 5.4%[46.1 µM], ., 7.8%, 0.0%, ., ., .
N#Cc1c(-c2ccco2)ccn(Cc2ccc(F)cc2)c1=O
 : ., 2.3%, -2.0%, -17.9%, ., ., -3.8%, 0.4%
CN(C)C(=O)c1ccc(N/C=C(\C=O)c2nc3ccccc3o2)cc1
 : ., 29.8%[46.1 µM], -0.7%, 3.3%, ., -0.9%, 11.5%, 1.7%[46.1 µM]
COc1ccc(/C=C2\SC(=S)N(N3CCOCC3)C2=O)c(OC)c1
 : ., 6.6%[46.1 µM], 1.2%, 1.1%, ., -4.0%, 1.1%, ?
CCc1ccc(NC(=O)CC2C(=O)N(c3cccc(C)c3)C(=O)N2Cc2cccc(OC)c2)cc1 (configuration not stated)
 : 9.9%, ?, ., -19.1%, -8.2%, ., ., .
Cc1nc2cc(N3CCCCC3)c(NC(=O)c3ccncc3)cc2c(=O)n1Cc1ccccc1
 : ?, -3.9%, -1.6%, 32.3%[activator], 1.2%, 18.1%, 0.8%, 22.3%&-1.2%

Later entries
Sequence of screens: Cruzain inh noDet, Lassa entry inh, SARS PLpro yeast, 2A StopGo, Cruzain Triton, NS1 function inh, RE007 growth inh, MARV entry inh
Cn1c(N2CCN(C(=O)Nc3ccc(F)cc3)CC2)nc2ccccc21
 : -7.3%, -8.7%, 1.0%, -11.3%, -1.0%, -2.4%, -15.4%, 14.6%
CCOC(=O)COc1cc(-n2c(=S)[nH]c3ccccc3c2=O)c(Cl)cc1Cl
 : ., 5.3%, 2.8%, -30.0%, ., ., -18.6%, 15.4%[46.1 µM]
O=C(c1ccccc1)c1cnc[nH]1
 : ., -2.3%, 1.6%, -0.7%, ., 3.1%, -2.9%, 2.0%[46.1 µM]
CCc1cccc2sc(NC(=O)C3CC3)nc12
 : ., ., -6.5%, -13.9%, ., -21.2%, 1.9%, .
Cc1cc(-c2ccc(C)c(S(=O)(=O)Nc3cc(C)on3)c2)on1
 : ., ., 3.6%, 33.4%[activator], ., -5.0%, -5.9%, .
Cc1ccc(Nc2ncc(C(=O)N3CCN(c4cccc(Cl)c4)CC3)c3ccccc23)cc1Cl
 : 7.94µM*, -12.0%[46.1 µM], ., -17.2%, -6.2%, ., ., -20.0%[46.1 µM]
O=C(c1ccc(Cn2cc([N+](=O)[O-])cn2)o1)N1N=C(C(F)F)CC1(O)C(F)F (configuration not stated)
 : -0.7%, -25.0%[14.3 µM], -0.7%, -13.6%, 5.9%, 1.7%, 10.0%, 0.5%
CCNc1nc(NCC)n2c(SCC(=O)Nc3ccc(C(F)(F)F)cc3[N+](=O)[O-])nnc2n1
 : ?, 14.2%, -3.6%, 0.0%, 7.9%, 5.3%, -0.3%, -2.0%
O=C(Cc1cccs1)Nc1ccccc1C(=O)O
 : 3.7%, 10.9%, 21.0%, -3.8%, -2.1%, ?, -14.0%, -6.4%
COc1ccc(N(Cc2cc3cccc(C)c3[nH]c2=O)S(=O)(=O)c2ccc(Cl)cc2)cc1
 : ., ., 5.1%, -10.5%, ., 0.7%, -10.7%, .
Cc1ccc(NC(=O)c2cccc(Oc3ccc([N+](=O)[O-])cc3)c2)c(C(=O)O)c1
 : ., ., ?, -2.2%, ., -20.8%, ?, .
O=C(c1ccc(Br)s1)N1CCN(C/C=C/c2ccccc2)CC1
 : -0.6%, 0.9%, -16.4%, -12.8%, 0.5%, -12.0%, -16.0%, 18.5%
O=[N+]([O-])c1ccc(Oc2cc(NC3CCCCCCC3)c([N+](=O)[O-])cc2[N+](=O)[O-])cc1
 : ., ., -11.6%, -10.6%, ., -14.2%, 1.5%, .
O=C(CN1C(=O)C2C3C=CC(C3)C2C1=O)OCC(=O)c1ccc(Br)cc1 (configuration not stated)
 : ., ., 3.4%, -19.4%, ., 5.1%, -2.0%, .
CN(CC(=O)Nc1ccc(Cl)c(C(F)(F)F)c1)C(=O)c1cccc2cccnc12
 : ., -9.4%, -0.7%, ?, ., ., 0.5%, ?
Cc1cc(C)n(-c2ccc(NC(=O)C3CCCCN3C(=O)c3ccoc3)cc2)n1 (configuration not stated)
 : ., 13.2%, -0.3%, -12.9%, ., 15.9%, 2.9%, 1.0%
Cc1ccc(OCc2ccc(-c3nc(C#N)c(N4CCN(c5cccc(Cl)c5)CC4)o3)o2)cc1
 : -11.6%, 23.3%[46.1 µM], ., -4.1%, -2.0%, ., ., ?
CCOC(=O)c1c(C)[nH]c(C)c1S(=O)(=O)NCc1cc(C)ccc1C
 : ., ., 14.6%, -11.4%, ., 9.4%, 0.8%, .
O=C(c1cnn2c(C(F)(F)F)cc(-c3cccs3)nc12)N1CCOCC1
 : ., 5.2%, -0.3%, -12.2%, ., -1.8%, -6.4%, -21.4%[46.1 µM]
C=CCn1c(SCc2c(C)noc2C)nc2cc(C(=O)O)ccc2c1=O
 : -14.7%, ?, 1.4%, 0.3%, -4.3%, 5.1%, -8.5%, -22.7%&-22.7%

An excerpt from above, showing only SARS PLpro yeast, RE007 growth inh and NS1 function inh:
compound,SARS PLpro yeast,RE007 growth inh,NS1 function inh
Cn1c(N2CCN(C(=O)Nc3ccc(F)cc3)CC2)nc2ccccc21,1.0%,-15.4%,-2.4%
CCOC(=O)COc1cc(-n2c(=S)[nH]c3ccccc3c2=O)c(Cl)cc1Cl,2.8%,-18.6%,.
